# Assay outcomes: PubChem, several laboratories
# Rce1 inhib: inhibitors of yeast Ras-converting enzyme. hit rate 0.27% among 290,000. AID 2563. Q03530. yeast membranes, quenched prenylated peptide cleavage fluorescence. calls only;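 active means fall in fluorescence gain of 50% or more versus controls, with final raw signal at or below 3038400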;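 further: plate controls were neutral control wells for no effect and wells lacking membranes for full effect; tested at 10 µM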
# Target sequence (Q03530 whole entry, looked up): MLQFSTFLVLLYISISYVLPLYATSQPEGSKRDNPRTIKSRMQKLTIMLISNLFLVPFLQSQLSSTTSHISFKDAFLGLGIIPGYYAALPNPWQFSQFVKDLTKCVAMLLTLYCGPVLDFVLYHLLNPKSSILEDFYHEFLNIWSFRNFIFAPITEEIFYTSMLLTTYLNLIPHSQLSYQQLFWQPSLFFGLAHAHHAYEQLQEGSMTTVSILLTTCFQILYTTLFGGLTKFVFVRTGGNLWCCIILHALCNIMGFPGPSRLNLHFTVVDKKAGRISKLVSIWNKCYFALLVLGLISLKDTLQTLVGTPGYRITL
# Yeast UUG start: modulators of start codon recognition fidelity in yeast | activity score, % at 18.7 µM | hit rate 0.13% among 350,000 | S. cerevisiae UUG-firefly luciferase reporter, luminescence/redox ratio;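 active means replicate mean at a twofold rise or more, about +100% in these data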;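 further: firefly luciferase made from a UUG start codon reports start codon fidelity; reporter light over untreated wells divided by growth signal over untreated wells; some hits fall short of that in this replicate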
# MT1-MMP act inh: MT1-MMP (human) activation inhibition; P50281; HT1080 RFP-PRO-GFP cells, GFP/RFP ratio fluorescence, overnight; percent of plate control window, DMSO zero; hit rate 0.061% among 360,000; GFP/RFP ratio change, % at 20 µM; AID 651647;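 active means GFP/RFP ratio change of at least 30% with cell ATP level not reduced by more than half and red fluorescence within 50% of control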; further: strong numbers were not always called active
#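 Material – HT1080 RFP-PRO-GFP cells · Control set – DMSO wells and RFP-L50D-GFP cells · Incubation – overnight cell settling, then overnight compound exposure, 37 °C, 5% CO2 · Compound dosing – single-point 20 µM compound, 1% DMSO · Read-out – GFP/RFP fluorescence ratio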
# PABP FP inh: blocks human PABP binding to poly(A) RNA. hit rate 1% among 290,000. fluorescence polarization. AID 2014. inhibition, % at 35 µM;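 active means 50% or more with normal probe brightness, or confirmed in later tests; about a fifth of its hits are not listed in these tables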;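 further: calls also rest on retests at 20 µM and on dose response follow-up; controls were probe without protein and protein plus probe with vehicle; some compounds called inactive have numbers as strong as hits; many hits fall short of the cut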
# Target sequence (P11940 whole entry, looked up): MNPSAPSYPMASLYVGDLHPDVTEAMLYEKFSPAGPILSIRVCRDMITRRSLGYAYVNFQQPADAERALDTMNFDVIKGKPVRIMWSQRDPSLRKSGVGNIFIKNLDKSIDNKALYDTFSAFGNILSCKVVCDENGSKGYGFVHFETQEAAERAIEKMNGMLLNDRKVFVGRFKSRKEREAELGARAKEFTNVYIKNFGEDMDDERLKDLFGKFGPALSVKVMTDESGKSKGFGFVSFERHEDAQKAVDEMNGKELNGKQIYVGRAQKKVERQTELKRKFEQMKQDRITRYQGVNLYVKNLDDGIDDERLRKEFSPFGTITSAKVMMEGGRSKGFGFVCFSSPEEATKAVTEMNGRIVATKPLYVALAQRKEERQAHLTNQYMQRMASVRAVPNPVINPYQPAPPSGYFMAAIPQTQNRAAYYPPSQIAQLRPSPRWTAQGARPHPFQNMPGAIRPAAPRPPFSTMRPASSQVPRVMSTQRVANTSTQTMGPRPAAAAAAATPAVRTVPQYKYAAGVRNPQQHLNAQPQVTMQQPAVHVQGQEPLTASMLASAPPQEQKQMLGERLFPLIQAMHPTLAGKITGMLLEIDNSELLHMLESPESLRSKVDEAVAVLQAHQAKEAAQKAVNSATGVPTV
# CSC inhib: cancer stem cell inhibition | AID 2717 | inhibition, % at 7.5 µM | hit rate 1.1% among 300,000 | cancer stem cell-like cells viability, luminescence;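 active means mean at 75% or more and at least half the replicates too; tested in HMLE shEcad cells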;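 further: 0% = median of negative and 100% = median of positive control wells; the first replicate is given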
# eIF4H inh: inhibitors of RNA binding by human eIF4H | inhibition, % at 35 µM | eIF4H fluorescence polarization binding assay | hit rate 0.94% among 290,000 | AID 2012 | Q15056;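 active means 50% or more with normal probe brightness, or confirmed in later tests; about a fifth of its hits are not listed in these tables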;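 further: calls also rest on retests at 20 µM and on dose response follow-up; 0% = protein and probe with vehicle and 100% = probe without protein; strong numbers were not always called active; many hits fall short of the cut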
# Env fusion inh: inhibitors of HIV Env-mediated cell fusion; inhibition, % at 12.3 µM; hit rate 1.1% among 360,000; AID 651610; HeLa-JRFL Env/CEM21 cell fusion, luciferase;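 active means mean replicate inhibition score of at least 50 and every replicate individually at or above 50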;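 further: 0% = plate neutral controls and 100% = maraviroc near 300 nM; one replicate is shown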
# eIF4H inh retest: recorded beside eIF4H inh, whose call it bears; inhibition, %; compound at 20 µM; confirmation average;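 mean of two retest wells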
# PABP FP inh retest: also measured in PABP FP inh; calls as there; inhibition, %; compound at 20 µM; confirmation repeats;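 mean of two retest wells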
# MT1-MMP act inh RFP: recorded beside MT1-MMP act inh, whose call it bears; RFP signal change, %; measured here: RFP expression control read;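 0 = vehicle wells; hits needed this value within 50% of zero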
# Numbers without * were called inactive; i = inactive; nt = no result given; + = active, no number.
SMILES,Rce1 inhib,Yeast UUG start,MT1-MMP act inh,MT1-MMP act inh RFP,PABP FP inh,CSC inhib,eIF4H inh,Env fusion inh,others
O=C1c2ccccc2C(c2nc3ccccc3[nH]2)N1c1ccccc1 (configuration not stated),nt,-24,0,5,nt,nt,nt,13,
O=C(N/N=C/c1ccco1)C1CC(=O)N(c2ccccc2)C1 (configuration not stated),i,nt,-1,0,1,-8,-4,3,
CCn1cnc2cc(NCc3ccc(Cl)cc3)ccc21,i,-22,2,-1,2,-13,0,-29,
COc1ccc([N+](=O)[O-])cc1NC(=O)COC(=O)c1ccc(O)cc1,i,-9,-1,3,2,12,-4,18,
Cc1ccc(S(=O)(=O)N2C(=S)SCC2(C)C)cc1,i,nt,nt,nt,5,nt,0,nt,
S=C(c1ccccc1)N(c1ccccc1)c1ccccc1,i,-14,-7,-6,1,-1,-8,13,
O=C(NCc1ccccc1)N[C@@H](Cc1ccccc1)C(=O)O,i,nt,3,2,-2,nt,-2,-25,
O=C(Nc1ccccc1)n1ccc(-c2ccc(-n3ccnc3)cc2)n1,+,nt,nt,nt,12,1,-4,-28,
CCc1cc(=O)oc2cc(OC(C)C(=O)NCCCn3ccnc3)ccc12 (configuration not stated),i,-11,2,4,-9,13,-3,2,
CCOc1cc(CNC2CCCC2)ccc1OCc1ccccc1Cl,+,4,0,-4,26,41,-5,22,
CCCCN(CC)c1nc(-c2ccncc2)nc2ccccc12,i,-19,-7,-4,6,30,2,64*,
CC1(C)Cc2c(ccc3ccccc23)/C(=C/C(=O)N2CCCCC2)N1,i,nt,-13,-16,10,-5,-4,nt,
Cc1ccccc1N(CC(=O)NCc1ccccc1)C(=O)CCC(=O)Nc1nccs1,nt,-6,-2,1,-4,-29,-8,2,
COc1ccc(-n2nc(C(=O)NCC(=O)N3CCN(Cc4ccc5c(c4)OCO5)CC3)c3ccccc3c2=O)cc1OC,i,nt,-2,-6,-2,9,-7,-1,
COC(=O)c1ccccc1NC(=O)COC(=O)C1CCCCC1,i,-11,4,4,12,-9,0,-3,
CCn1c(C)nc2cc(C(=O)N/N=C(\C)c3ccccc3O)ccc21,i,nt,8,6,5,16,-3,-12,
COc1cc(Cl)ccc1OCc1cc(C(=O)NC(C)Cc2cnccn2)no1 (configuration not stated),nt,-4,-2,-3,1,-10,2,-57,
Cc1nn(Cc2ccccc2)c(Cl)c1/C=C/C(=O)OCC(=O)N1CCCC1=O,i,nt,2,4,0,-6,9,-17,
O=S(=O)(c1ccccc1)N1N=C(c2cccs2)CC1c1ccc(Br)cc1 (configuration not stated),i,3,-7,-9,-7,-15,-2,-50,
Cc1nn(-c2ccccc2)c(C)c1C(=O)Oc1ccccc1,i,-11,-1,-3,1,-9,-4,3,
Cn1c(NC(=O)CCC2CCCCC2)cc(=O)n(C)c1=O,i,-14,4,1,0,-5,-2,-35,
Cc1cc(N2CCN(C(=O)/C=C/C(=O)O)CC2)c2ccccc2n1,i,nt,-6,-3,5,-18,7,-17,
COc1ccc(C(C)=O)cc1COC(=O)CCC(=O)N(CC(C)C)c1c(N)n(CC(C)C)c(=O)[nH]c1=O,i,-12,-1,1,nt,-16,nt,nt,
O=C(Nc1ccc(Oc2ccccc2)cc1)C1CCCO1 (configuration not stated),i,nt,-1,0,12,-8,-7,nt,
COc1ccccc1C(=O)N1CCN(CCNC(=O)C(=O)Nc2ccc(Br)c(C)c2)CC1,i,0,-1,-11,-4,1,-8,23,
COc1cccc(N2CCN(S(=O)(=O)c3c(C)[nH]c(C)c3C(=O)N3CCCCC3)CC2)c1,i,-18,-1,1,6,-21,-8,5,
CC(C)c1nnc(NC(=O)c2c(O)c3cccc4c3n(c2=O)CCC4)s1,i,nt,-10,-12,-4,24,4,nt,
COc1ccc(CNC(=O)Cn2ccc([N+](=O)[O-])n2)cc1OC,i,5,0,2,5,-15,4,-7,
Cc1noc(NS(=O)(=O)c2ccc(NC(=O)CSc3n[nH]c(-c4ccccc4)n3)cc2)c1C,i,-23,7,7,20,2,-3,-315,
COc1ccccc1/C=C(/C(=O)OCC(=O)Nc1ccccc1C)c1ccccc1,i,5,-5,-7,-2,4,-12,-5,
O=C(CSCCNS(=O)(=O)c1ccccc1)Nc1ccccc1,i,-4,-8,3,5,0,-2,nt,
CCC(=O)n1nc(NCc2ccc(OC)c(OC)c2)nc1NCc1ccc(OC)c(OC)c1,i,-1,2,-17,-6,-5,-10,nt,
Cn1c(=O)c2cc(NC(=O)NCc3ccccc3)ccc2n1Cc1ccc(Cl)cc1,nt,-1,8,-9,nt,nt,nt,-46,
Nc1n[nH]c(S(=O)(=O)CCCc2ccccc2)n1,i,-5,2,4,4,-7,3,nt,
CCOC(=O)C(CC)Sc1ccc2nnc(-c3cccnc3)n2n1 (configuration not stated),i,nt,1,3,-3,5,-1,-4,
CC(=O)c1c(C)n(CCO)c2ccc(O)cc12,i,-2,4,-3,0,1,-18,nt,
CCOc1ccc(NC(=O)CSc2nncc(=O)n2N)cc1,i,-11,0,0,-8,-6,2,-14,
C/C(=N/NC(=O)CSc1ccccn1)c1ccc([N+](=O)[O-])cc1,i,-10,1,5,-2,-6,8,-3,
CC12CC3CC(C1)CC(C(=O)NNC(=O)c1ccncc1)(C3)C2,nt,-11,0,0,nt,-10,nt,-15,
CCOc1cc(C(=O)NCCN2CCOCC2)cc(OCC)c1OCC,i,5,nt,nt,18,3,-6,nt,
NNc1ncnc2c1cnn2-c1ccccc1,i,nt,-4,2,4,4,-13,nt,
COc1ccc(S(=O)(=O)N2CN(CCc3ccc(OC)c(OC)c3)c3nc4ccccc4nc32)cc1,i,nt,-15,-15,16,8,20,27,
COc1ccc(S(=O)(=O)Nc2cc([N+](=O)[O-])ccc2OC)cc1,i,-15,-7,-10,-5,-18,-13,nt,
O=C(COC(=O)Cn1cnc2ccccc21)Nc1ccc(F)c(F)c1,nt,-21,0,3,nt,18,nt,4,
Cc1cc(C)c(NC(=O)C2CC(=O)N(Cc3ccccc3)C2)c(C)c1 (configuration not stated),i,-13,3,2,-10,nt,13,13,

# Molecules from the list above containing bromine, in the order listed:
SMILES,Rce1 inhib,Yeast UUG start,MT1-MMP act inh,MT1-MMP act inh RFP,PABP FP inh,CSC inhib,eIF4H inh,Env fusion inh,others
O=S(=O)(c1ccccc1)N1N=C(c2cccs2)CC1c1ccc(Br)cc1 (configuration not stated),i,3,-7,-9,-7,-15,-2,-50,
COc1ccccc1C(=O)N1CCN(CCNC(=O)C(=O)Nc2ccc(Br)c(C)c2)CC1,i,0,-1,-11,-4,1,-8,23,

# New compounds follow:
SMILES,Rce1 inhib,Yeast UUG start,MT1-MMP act inh,MT1-MMP act inh RFP,PABP FP inh,CSC inhib,eIF4H inh,Env fusion inh,others
O=C(CCN1C(=O)/C(=C\c2ccccc2Cl)SC1=S)N1CCN(c2ccccc2)CC1,i,-13,2,4,12,21,0,nt,
CC(=O)Nc1ccc(S(=O)(=O)N(C#N)c2nc(C)cc(C)n2)cc1,i,2,2,8,17,-2,0,-1,
COc1ccccc1N(C)S(=O)(=O)c1ccc(C(=O)N(CC(N)=O)C(C)C)cc1,i,-8,9,6,-5,-7,5,nt,
Cc1ccc(S(=O)(=O)N2CCOCC2)cc1C(=O)NCc1ccc2c(c1)OCO2,i,nt,10,4,-3,-3,-6,-93,
CCCCNC(=O)C1CC(c2cccc([N+](=O)[O-])c2)=NO1 (configuration not stated),i,-10,3,-2,-9,6,1,-8,
CC(=O)Nc1ccc(C(=O)OCC(=O)N(c2ccccc2)C2CCCCC2)cc1,nt,-2,-1,0,nt,50,nt,-14,
O=C(NCC1CCN(C(=O)c2c(F)c(F)c(F)c(F)c2F)CC1)c1c(F)c(F)c(F)c(F)c1F,i,-1,1,1,-11,-9,1,-3,
Cc1cc2nc(C3CCN(Cc4nnnn4Cc4ccccc4)CC3)[nH]c2cc1C,i,9,8,-4,-14,13,3,nt,
Cc1ccc(NC(=O)CO/N=C(\N)c2nonc2N)cc1C,i,nt,1,1,-1,-12,-10,1,
O=C(N=C1SC2CS(=O)(=O)CC2N1c1ccccc1C(F)(F)F)C1CCCO1 (configuration not stated),i,nt,-3,1,64,1,-8,-2,eIF4H inh retest=-5;PABP FP inh retest=4
O=C(O)c1sc2cc(C(F)(F)F)cnc2c1-c1ccccn1,i,nt,-2,1,24,-7,9,-2,
Oc1ccc(O)c2c1C1c3ccccc3C2c2ccccc21,i,nt,nt,nt,1,22,9,nt,
O=C(NCCCN1CCOCC1)c1cc2ccccc2cc1O,i,nt,2,1,nt,-10,nt,nt,
c1coc(CNc2nc3ccccc3n2CCN2CCOCC2)c1,i,-15,1,2,-1,-5,3,-45,
CCSc1nnc2c(n1)OC(c1ccc(C(=O)O)cc1)N(C(C)=O)c1ccccc1-2 (configuration not stated),i,-3,10,8,-8,-5,-9,7,
CCCCNC(=O)c1nnn(-c2ccccc2)c1N,i,-6,-1,-2,-14,-4,-9,-22,
C=CCn1c(SCC(O)Cn2c3ccccc3c3ccccc32)nnc1-c1ccco1 (configuration not stated),i,nt,-4,-15,-6,-9,-5,nt,

# An excerpt from above in order of SMILES length, smallest number first.
SMILES,Rce1 inhib,Yeast UUG start,MT1-MMP act inh,MT1-MMP act inh RFP,PABP FP inh,CSC inhib,eIF4H inh,Env fusion inh,others
CCCCNC(=O)c1nnn(-c2ccccc2)c1N,i,-6,-1,-2,-14,-4,-9,-22,
O=C(NCCCN1CCOCC1)c1cc2ccccc2cc1O,i,nt,2,1,nt,-10,nt,nt,
c1coc(CNc2nc3ccccc3n2CCN2CCOCC2)c1,i,-15,1,2,-1,-5,3,-45,
Cc1ccc(NC(=O)CO/N=C(\N)c2nonc2N)cc1C,i,nt,1,1,-1,-12,-10,1,
O=C(O)c1sc2cc(C(F)(F)F)cnc2c1-c1ccccn1,i,nt,-2,1,24,-7,9,-2,
O=C(COC(=O)Cn1cnc2ccccc21)Nc1ccc(F)c(F)c1,nt,-21,0,3,nt,18,nt,4,
CCCCNC(=O)C1CC(c2cccc([N+](=O)[O-])c2)=NO1 (configuration not stated),i,-10,3,-2,-9,6,1,-8,
Cc1cc(C)c(NC(=O)C2CC(=O)N(Cc3ccccc3)C2)c(C)c1 (configuration not stated),i,-13,3,2,-10,nt,13,13,
CC(=O)Nc1ccc(S(=O)(=O)N(C#N)c2nc(C)cc(C)n2)cc1,i,2,2,8,17,-2,0,-1,
Cc1cc2nc(C3CCN(Cc4nnnn4Cc4ccccc4)CC3)[nH]c2cc1C,i,9,8,-4,-14,13,3,nt,
CC(=O)Nc1ccc(C(=O)OCC(=O)N(c2ccccc2)C2CCCCC2)cc1,nt,-2,-1,0,nt,50,nt,-14,
O=C(N=C1SC2CS(=O)(=O)CC2N1c1ccccc1C(F)(F)F)C1CCCO1 (configuration not stated),i,nt,-3,1,64,1,-8,-2,eIF4H inh retest=-5;PABP FP inh retest=4
COc1ccccc1N(C)S(=O)(=O)c1ccc(C(=O)N(CC(N)=O)C(C)C)cc1,i,-8,9,6,-5,-7,5,nt,
O=C(CCN1C(=O)/C(=C\c2ccccc2Cl)SC1=S)N1CCN(c2ccccc2)CC1,i,-13,2,4,12,21,0,nt,
O=C(NCC1CCN(C(=O)c2c(F)c(F)c(F)c(F)c2F)CC1)c1c(F)c(F)c(F)c(F)c1F,i,-1,1,1,-11,-9,1,-3,

# A portion of the library; the hit share may differ from the screen's.
